# rRNA inh HTS – reduced GFP signal of wild-type E. coli, primary screen, bacterial rRNA inhibitor project, GFP/RFP fluorescence, OD600, single point; E. coli WT GFP vs humanized-ribosome RFP mutants, 24 h; hits give low values; DMSO median 0, no signal -100; GFP signal change (wild-type ribosome), % (no concentration beside the values); 350,000 compounds, 1.6% hits; AID 720706, 2013;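 active = significant combined selectivity score with lowered wild-type GFP, culture density cut under 30%, mutant RFP and density less affected; inactive = any of these conditions unmet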; also: one replicate is shown; some compounds called inactive have numbers as strong as hits
# AF4-AF9 inh – inhibitors of AF4 peptide binding to AF9, primary screen, biochemical, AlphaScreen, biotin-AF4 peptide, FLAG-AF9, single point; Protein AF-9 (Homo sapiens), P42568; inhibition, % at 10 µM; 350,000 compounds, 0.47% hits; AID 651704, 2012;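 active = every replicate reaching a set inhibition limit, whatever the replicate mean, cut at about 25% in these data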;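 also: 0% = plate neutral control median and 100% = total signal loss; the record names both 10 and 1 µM as test concentration; the first replicate is given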
# Target sequence (P42568 whole entry, looked up): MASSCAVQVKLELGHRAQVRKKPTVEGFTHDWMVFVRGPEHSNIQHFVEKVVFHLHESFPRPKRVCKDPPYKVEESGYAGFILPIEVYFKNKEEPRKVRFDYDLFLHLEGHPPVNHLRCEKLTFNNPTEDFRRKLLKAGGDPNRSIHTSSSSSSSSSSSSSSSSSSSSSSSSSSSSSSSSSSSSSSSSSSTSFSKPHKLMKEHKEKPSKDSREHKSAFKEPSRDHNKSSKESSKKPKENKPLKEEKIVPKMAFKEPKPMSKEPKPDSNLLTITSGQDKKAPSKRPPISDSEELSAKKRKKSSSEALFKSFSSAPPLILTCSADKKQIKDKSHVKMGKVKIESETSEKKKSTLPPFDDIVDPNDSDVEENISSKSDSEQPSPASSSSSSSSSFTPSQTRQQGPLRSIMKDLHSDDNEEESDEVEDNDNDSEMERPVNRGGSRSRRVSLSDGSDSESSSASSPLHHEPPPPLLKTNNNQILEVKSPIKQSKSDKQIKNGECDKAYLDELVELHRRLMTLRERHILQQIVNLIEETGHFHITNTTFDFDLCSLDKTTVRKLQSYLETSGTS
# rRNA inh HTS OD600 – recorded beside rRNA inh HTS, whose call it bears; OD600 change, %; measured here: OD600 growth;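 optical density of the mix in the first replicate; 0 = DMSO median and -100 = no signal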
# rRNA inh HTS RFP – further read-out of rRNA inh HTS, marked with its call; RFP signal change, %; measured here: RFP humanized mutant strains;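 first replicate; 0 = DMSO median and -100 = no signal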
# * marks the source's active call; other numbers are inactive results; & = joins results of further samples.
# Values run as follows: rRNA inh HTS RFP	rRNA inh HTS	rRNA inh HTS OD600	AF4-AF9 inh
CN1c2ccc(Br)cc2[C@H]2[C@H](CCN2C(=O)C2CCCCC2)[C@H]1CO
 : -0.8	-47.6	-75.1	-2.9
CCCCOCCCNC(=O)C[C@@H]1C[C@@]2(C(=O)OC)CCCCC=C2N(Cc2ccc3c(c2)OCO3)C1=O
 : -2.5	-25.4	-44.8	1.5
CO[C@H]1CN(C)C(=O)c2ccc(NC(=O)c3ccccc3F)cc2OC[C@H](C)N(C(=O)c2ccccc2F)C[C@@H]1C
 : 0.4	-6.8	-5.4	0.6
O=C(C1CCC1)N1CC2(C1)[C@@H](c1ccccc1)[C@H](CO)N2C(=O)c1ccccn1
 : 1.3	-2.3	0.0	-0.8
O=C(CN1CCOCC1)NCC[C@H]1CC[C@H](NC(=O)c2ccc3c(c2)OCO3)[C@H](CO)O1
 : 0.4	-0.5	0.2	10.8
C[C@H]1CN([C@@H](C)CO)C(=O)c2cc(NC(=O)Nc3cccc4ccccc34)ccc2O[C@@H]1CN(C)Cc1ccc(C(F)(F)F)cc1
 : 0.4	4.1	-3.8	0.3
C[C@H](CO)N1C[C@H](C)[C@H](CN(C)S(=O)(=O)c2ccccc2)Oc2cc(C#Cc3ccncc3)ccc2S1(=O)=O
 : 6.3	-5.1	-3.9	3.3
C[C@H](O)C#Cc1ccc2c(c1)O[C@H](CN(C)C(=O)C1CCC1)[C@@H](C)CN([C@H](C)CO)S2(=O)=O
 : -1.4	0.4	-0.6	-4.3
O=NN(CC(=O)NNc1ccccc1)CC(=O)NNc1ccccc1
 : -1.4	2.7	14.8	0.6
C[C@@H]1CCCCO[C@@H](CN(C)C(=O)Cc2ccccc2)[C@H](C)CN([C@@H](C)CO)C(=O)c2cc(NC(=O)Cc3ccccc3)ccc2O1
 : 5.0	-6.4	-15.1	-1.9
C[C@H](CO)N1C[C@H](C)[C@H](CN(C)C(=O)Nc2ccc3c(c2)OCO3)Oc2c(NC(=O)Nc3ccccc3)cccc2C1=O
 : 0.9*	-22.0*	-10.9*	9.7
C[C@@H]1CN([C@@H](C)CO)C(=O)c2cccc(NC(=O)C3CCCCC3)c2O[C@@H]1CN(C)C(=O)Nc1ccccc1
 : -6.3	-4.2	-1.6	2.6
C/C=C/c1cnc2c(c1)C(=O)N([C@@H](C)CO)C[C@@H](C)[C@H](CN(C)S(=O)(=O)c1ccccc1F)O2
 : -2.1	-5.5	-1.7	-0.1
Cc1ccccc1S(=O)(=O)NCC[C@H]1CC[C@@H](NC(=O)C2CCCC2)[C@H](CO)O1
 : -1.6	-2.6	0.6	2.0
CCN(C(=O)CSc1nc2cc(C(=O)O)ccc2c(=O)n1-c1ccccc1F)C1CCS(=O)(=O)C1 (configuration not stated)
 : 1.5	7.2	20.1	2.6
Cc1noc(C)c1NC(=O)Nc1ccc2c(c1)CC(=O)N([C@H](C)CO)C[C@@H](C)[C@@H](CN(C)C(=O)NC1CCCCC1)O2
 : -2.6	2.4	2.6	-0.7
Cc1noc(C)c1S(=O)(=O)Nc1ccc2c(c1)C(=O)N([C@H](C)CO)C[C@H](C)[C@@H](CN(C)Cc1ccncc1)OCCCC[C@@H](C)O2
 : -4.4	4.1	2.6	-1.6
CSc1ccccc1NC(=O)C1(C)CCN1C(=O)Cc1ccc(-c2ccccc2)cc1 (configuration not stated)
 : -1.4	-7.5	-12.7	-0.1
Cc1ccc(S(=O)(=O)Nc2ccc3c(c2)C(=O)N([C@@H](C)CO)C[C@@H](C)[C@H](CN(C)C(=O)Nc2ccc(C(F)(F)F)cc2)OCCCC[C@@H](C)O3)cc1
 : -2.4	6.4	7.6	-4.3
O=C(C[C@@H]1CC[C@H]2[C@@H](COC[C@@H](O)CN2C(=O)c2ccc3c(c2)OCO3)O1)NCCN1CCCCC1
 : 0.2	-15.2	-13.3	-3.9
C[C@@H]1CCCCO[C@@H](CN(C)C(=O)CCCN(C)C)[C@H](C)CN([C@@H](C)CO)C(=O)c2cc(NC(=O)Nc3cccc4ccccc34)ccc2O1
 : 2.3	-0.3	6.4	12.7
COc1ccc(NC(=O)N(C)C[C@@H]2Oc3ccc(NC(=O)Nc4cccc5ccccc45)cc3C(=O)N([C@@H](C)CO)C[C@@H]2C)cc1
 : -1.4	-0.8	2.9	1.5
Cc1ccc(S(=O)(=O)Nc2ccc3c(c2)CC(=O)N([C@@H](C)CO)C[C@H](C)[C@@H](CN(C)C(=O)Nc2c(C)noc2C)O3)cc1
 : 2.3	2.2	6.7	-2.6
Cc1cccc(-c2ccc([C@H]3[C@@H](CO)N4CCCCN(C(=O)c5cccnc5)C[C@@H]34)cc2)c1
 : 6.5	-28.1	-37.8	-2.0
C[C@@H]1CCCCO[C@@H](CN(C)S(=O)(=O)c2cn(C)cn2)[C@H](C)CN([C@H](C)CO)C(=O)c2cc(NS(=O)(=O)c3ccc(F)cc3)ccc2O1
 : 2.2	-0.3	-1.0	-4.5
COC(=O)[C@]1(Cc2ccccc2)NC=C(C(=O)c2ccccc2)[C@@H]1c1cccs1
 : 6.5	2.6	4.4	2.1
Cc1ccccc1-c1cnc2c(c1)C(=O)N([C@H](C)CO)C[C@@H](C)[C@@H](CN(C)C(=O)CN(C)C)O2
 : 0.0	7.3	19.6	-2.0
C[C@@H]1CN([C@@H](C)CO)C(=O)c2cc(NC(=O)Nc3ccc(C(F)(F)F)cc3)ccc2O[C@H]1CN(C)S(=O)(=O)c1cn(C)cn1
 : 0.1	-7.6	-5.6	0.4
COc1ccc(NC(=O)Nc2ccc3c(c2)C(=O)N([C@@H](C)CO)C[C@@H](C)[C@H](CN(C)Cc2ccc(C(=O)O)cc2)O3)cc1
 : -0.4	-3.4	7.4	-0.3
O=C(C[C@H]1CC[C@@H](NC(=O)c2ccc(F)cc2)[C@@H](CO)O1)NCCc1ccncc1
 : -3.5	1.8	3.5	-0.2
C/C=C/c1ccc2c(c1)O[C@H](CN(C)C(=O)c1cccnc1)[C@@H](C)CN([C@H](C)CO)S2(=O)=O
 : -1.9	-3.2	3.9	-2.0
CN(C)Cc1csc(NC(=O)Nc2ccccc2-c2ccccc2)n1
 : 8.9	-8.7	-7.1	6.5
CC(C)NC(=O)N1[C@H](CO)[C@H]2c3ccccc3NC[C@H]21
 : 2.0	1.0	-3.4	-0.3
COCC(=O)Nc1ccc2c(c1)C(=O)N(C)[C@@H]1CC[C@H](CC(=O)NCC3CC3)O[C@@H]1CO2
 : -1.7	3.6	10.8	0.5
CN(Cc1ccccc1)C(=O)c1ccc2nc([C@@H]3O[C@H](CO)[C@H](O)[C@H](O)[C@H]3O)[nH]c2c1
 : 2.8	13.9	28.8	-3.3
CCNC(=O)[C@@H]1[C@@H](CO)[C@@H]2Cn3c(ccc(/C=C/c4ccccc4)c3=O)[C@H]1N2C(=O)c1ccncc1
 : -0.1	3.2	9.6	-2.4
CC(C)NC(=O)N(C)C[C@@H]1OCCCC[C@@H](C)Oc2ccc(NC(=O)CCC(F)(F)F)cc2C(=O)N([C@@H](C)CO)C[C@H]1C
 : -2.1	-0.7	6.2	-2.7
N#CCC(=O)Nc1ccc(C(=O)OC(C(=O)Nc2ccc([N+](=O)[O-])cc2Br)c2ccccc2)cc1 (configuration not stated)
 : -4.3	8.3	3.0	0.6
Nc1ncnc2c1ncn2[C@@H]1O[C@H](C(=O)N[C@H]2c3ccccc3C[C@H]2O)[C@@H](O)[C@H]1O
 : -2.2	1.1	2.6	0.5
CCCCOCC1CN(CCCC)S(=O)(=O)c2c(cccc2N(C)S(=O)(=O)c2ccc(C)cc2)O1 (configuration not stated)
 : 0.5	7.5	4.5	1.7
C[C@H](CO)N1C[C@H](C)[C@H](CN(C)C(=O)Nc2cccc3ccccc23)OCCCC[C@H](C)Oc2ccc(NS(C)(=O)=O)cc2C1=O
 : 4.7	-1.0	-7.4	-4.5
CO[C@H]1CN(C)C(=O)c2cc(NC(=O)c3cccc(F)c3)ccc2OC[C@H](C)N(C)C[C@H]1C
 : -1.1	-1.2	-8.1	-0.7
C[C@H](CO)N1C[C@H](C)[C@@H](CN(C)C(=O)Nc2cccc(C(F)(F)F)c2)OCc2ccccc2-c2c(n(C)c3ccccc23)C1=O
 : 4.1	1.1	1.3	7.5
C[C@@H]1CCCCO[C@H](CN(C)S(C)(=O)=O)[C@H](C)CN([C@@H](C)CO)C(=O)c2cc(NC(=O)CCCN(C)C)ccc2O1
 : 0.4	0.3	4.5	2.5
C/C=C/c1ccc([C@@H]2[C@H](CO)N(C(=O)CN(C)C)C23CN(C(=O)C2CC2)C3)cc1
 : -1.2	1.2	7.0	4.0
COc1ccc(C(=O)N2C[C@H]3[C@@H](c4ccccc42)[C@H](CO)N3C(=O)c2cccc(F)c2)cc1
 : -2.8	0.6	-4.2	-0.4
C[C@@H]1CN([C@@H](C)CO)C(=O)c2cc(NC(=O)CCC(F)(F)F)ccc2O[C@@H]1CN(C)C
 : -0.3	6.4	0.3	-1.6
C[C@@H]1CN([C@H](C)CO)S(=O)(=O)c2ccc(-c3cccc(F)c3)cc2O[C@@H]1CN(C)S(=O)(=O)c1ccc(F)cc1
 : -0.2	4.2	1.8	-2.7
Cc1cccc(S(=O)(=O)N2C[C@@H]3[C@H](c4ccccc42)[C@H](CO)N3C(=O)CC2CC2)c1
 : -3.8	-5.5	-1.2	-16.1
C[C@@H]1CCCCO[C@@H](CN(C)C(=O)Nc2ccccc2)[C@@H](C)CN([C@@H](C)CO)C(=O)c2cc(NC(=O)c3ccccc3)ccc2O1
 : -2.5	0.6	-0.6	0.4
CN(C)CCNC(=O)c1ccc(-c2cn3c(-c4ccc(Oc5ccccc5)cc4)cnc3cn2)cc1
 : -3.0	-39.3	-47.9	34.2*
C[C@H](CO)N1C[C@H](C)[C@@H](CN(C)Cc2ccc(Cl)c(Cl)c2)Oc2ccc(NC(=O)c3ccncc3)cc2CC1=O
 : 34.0	-28.1	-51.2	5.8
CO[C@@H]1CN(C)C(=O)c2cc(NC(=O)C3CCC3)ccc2OC[C@H](C)N(Cc2cccnc2)C[C@@H]1C
 : 1.8	2.9	4.7	-1.2
C[C@H]1CN([C@@H](C)CO)C(=O)Cc2cc(NS(C)(=O)=O)ccc2O[C@@H]1CN(C)Cc1ccccc1
 : -1.8	0.3	3.8	-1.8
CCCNC(=O)N(C)C[C@H]1Oc2ncc(C#Cc3ccccc3F)cc2C(=O)N([C@@H](C)CO)C[C@H]1C
 : -2.8	0.9	-4.2	0.6
CCC(=O)N(C)C[C@@H]1Oc2ncc(C#Cc3cccnc3)cc2C(=O)N([C@@H](C)CO)C[C@H]1C
 : -2.8	1.8	7.2	-3.6
C[C@@H]1CN([C@H](C)CO)C(=O)c2cc(NC(=O)c3ccncc3)ccc2O[C@@H]1CN(C)C(=O)Nc1ccc(C(F)(F)F)cc1
 : -3.0	-1.7	-11.6	-1.4
COc1ccc2oc(=O)cc(CN3CCN(Cc4ccccc4)CC3)c2c1
 : -0.5	9.4	10.8	1.2
CO[C@H]1CN(C)C(=O)c2cc(NC(=O)Nc3ccccc3F)ccc2OC[C@H](C)N(Cc2ccccc2C(=O)O)C[C@@H]1C
 : 1.6	3.3	6.2	-0.4
COc1ccccc1NC(=O)N[C@H]1CC[C@H](CC(=O)N[C@H](C)c2ccccc2)O[C@H]1CO
 : -0.7	-2.4	-1.9	-0.1

# AF4-AF9 inh, what is marked active above
# Values run as follows: rRNA inh HTS RFP	rRNA inh HTS	rRNA inh HTS OD600	AF4-AF9 inh
CN(C)CCNC(=O)c1ccc(-c2cn3c(-c4ccc(Oc5ccccc5)cc4)cnc3cn2)cc1
 : -3.0	-39.3	-47.9	34.2*

# Continued:
# Values run as follows: rRNA inh HTS RFP	rRNA inh HTS	rRNA inh HTS OD600	AF4-AF9 inh
CCC(=O)N1C[C@H](C)[C@H](OC)CN(C)C(=O)c2ccc(NC(=O)c3cnccn3)cc2OC[C@H]1C
 : 0.3	-1.3	-3.1	0.1
CO[C@@H]1CN(C)C(=O)c2cc(NC(C)=O)ccc2OC[C@H](C)N(Cc2ccccn2)C[C@H]1C
 : -1.9	0.0	5.9	-0.1
Cc1ccc(S(=O)(=O)N(C)C[C@H]2OCCCC[C@H](C)Oc3ccc(NC(=O)c4ccccc4)cc3C(=O)N([C@H](C)CO)C[C@@H]2C)cc1
 : 1.6	-1.8	1.7	-1.2
C[C@@H]1CN([C@@H](C)CO)C(=O)c2cc(Br)cnc2O[C@@H]1CN(C)C(=O)c1ccc(F)cc1
 : 2.7&-3.9	4.7&2.1	7.9&-3.2	-11.4&-2.6

# Retrieved by structure from the entries so far:
# Values run as follows: rRNA inh HTS RFP	rRNA inh HTS	rRNA inh HTS OD600	AF4-AF9 inh
CO[C@@H]1CN(C)C(=O)c2cc(NC(C)=O)ccc2OC[C@H](C)N(Cc2ccccn2)C[C@H]1C
 : -1.9	0.0	5.9	-0.1
C[C@@H]1CN([C@@H](C)CO)C(=O)c2cc(Br)cnc2O[C@@H]1CN(C)C(=O)c1ccc(F)cc1
 : 2.7&-3.9	4.7&2.1	7.9&-3.2	-11.4&-2.6
CCC(=O)N1C[C@H](C)[C@H](OC)CN(C)C(=O)c2ccc(NC(=O)c3cnccn3)cc2OC[C@H]1C
 : 0.3	-1.3	-3.1	0.1
Cc1ccc(S(=O)(=O)N(C)C[C@H]2OCCCC[C@H](C)Oc3ccc(NC(=O)c4ccccc4)cc3C(=O)N([C@H](C)CO)C[C@@H]2C)cc1
 : 1.6	-1.8	1.7	-1.2

# Compound activity from PubChem BioAssay.

# A portion of the library; the hit share may differ from the screen's.
